Six1-Eya2 blk: inhibitors of human Six1/Eya2 interaction; Q15475+O00167; activity change, % (test concentration not listed); AlphaScreen GST-Six1/His-Eya2 binding, biochemical; active compounds read low; control for the full effect not named in the record; AID 651725; 0.56% of 360,000 active; in the data active = activity change below about -65%; inconclusive = about -30% to -65%; inactive = above about -30%; also: % is scaled to controls: 0 for no effect and ±100 for the full control effect
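AlphaScreen with GST-Six1 and His-Eya2 (5X mix: 250 nM and 500 nM), glutathione donor and nickel acceptor beads; buffer 50 mM Tris pH 8.0, 300 mM NaCl, 1 mM TCEP; 1 h at 37 C in the dark.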
TRPML1 agonist: agonists of human TRPML1 channel; activation, % (concentration not given with the values); 0.12% of 410,000 active; AID 624414; TRPML1-expressing cells, Ca2+ dye fluorescence, FDSS; host cell line not named in the record; reference of the full effect not given here; Q9GZU1; in the data active = activation above about 50%; inconclusive = about 30% to 50%; inactive = below about 30%; also: 0% is about no effect; the text of the record puts the active cut at 80%
Target sequence (Q9GZU1 whole entry, looked up): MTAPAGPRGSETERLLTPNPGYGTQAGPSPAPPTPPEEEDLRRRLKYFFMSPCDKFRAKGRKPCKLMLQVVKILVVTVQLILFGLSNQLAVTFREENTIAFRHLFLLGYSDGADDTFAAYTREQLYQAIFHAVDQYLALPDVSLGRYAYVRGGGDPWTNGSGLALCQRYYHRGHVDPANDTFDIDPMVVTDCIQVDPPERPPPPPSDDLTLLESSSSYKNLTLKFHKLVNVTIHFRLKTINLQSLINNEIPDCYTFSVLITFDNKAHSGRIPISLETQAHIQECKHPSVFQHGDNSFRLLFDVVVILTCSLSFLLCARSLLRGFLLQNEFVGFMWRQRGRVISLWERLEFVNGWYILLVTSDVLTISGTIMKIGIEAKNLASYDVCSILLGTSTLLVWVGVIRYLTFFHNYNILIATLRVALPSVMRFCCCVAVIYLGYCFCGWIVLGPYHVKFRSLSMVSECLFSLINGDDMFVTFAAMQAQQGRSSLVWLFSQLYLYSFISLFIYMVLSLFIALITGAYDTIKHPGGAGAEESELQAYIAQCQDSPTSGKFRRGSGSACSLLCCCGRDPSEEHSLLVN
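In this qHTS format, compounds were pin-transferred onto Ca8-dye-loaded TRPML1-DL cells induced with Tet overnight, and intracellular Ca2+ fluorescence was recorded kinetically for 110 s after a 10 s baseline. A subsequent 4uM final 54-4 (EC80) addition followed by a second 110 s read served as the antagonist phase.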
D2 PAM: human D2 receptor positive allosteric modulation. P14416. DiscoveRx D2 beta-arrestin cells, luminescence, 90 min; 100% = 57 uM dopamine signal. potentiation, % (concentration not given with the values). 0.23% of 360,000 active; active = potentiation of 50% or more; inconclusive = 30% to 50%; inactive = 30% or less;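 also: compound concentration not given in the record; tested on top of an EC20 dose of dopamine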
Target sequence (P14416 whole entry, looked up): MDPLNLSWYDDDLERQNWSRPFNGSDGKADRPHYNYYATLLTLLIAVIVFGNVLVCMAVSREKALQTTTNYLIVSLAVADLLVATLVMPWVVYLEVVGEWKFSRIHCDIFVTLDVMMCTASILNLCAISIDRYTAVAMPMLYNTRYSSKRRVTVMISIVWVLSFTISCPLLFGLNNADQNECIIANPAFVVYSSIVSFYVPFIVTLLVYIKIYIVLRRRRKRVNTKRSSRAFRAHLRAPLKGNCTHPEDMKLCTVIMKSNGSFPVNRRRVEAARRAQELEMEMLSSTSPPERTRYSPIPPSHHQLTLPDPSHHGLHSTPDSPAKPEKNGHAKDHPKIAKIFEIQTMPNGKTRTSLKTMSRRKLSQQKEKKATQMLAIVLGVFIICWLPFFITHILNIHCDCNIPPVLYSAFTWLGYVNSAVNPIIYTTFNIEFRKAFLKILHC
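PathHunter beta-arrestin assay in DiscoveRx D2 cells. Compounds were added with an EC20 of dopamine (50 nM final) for 90 min at 37 deg C. Luminescence was read 1 h after detection reagent, with 57 uM dopamine as the EC100 control.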
D2 agonist: activates the human D2 dopamine receptor; DiscoveRx PathHunter D2 beta-arrestin, luminescence, 90 min; 100% = 57 uM dopamine signal; activation, % (test concentration not listed); 0.084% of 360,000 active; in the data active = activation above about 40%; inconclusive = about 15% to 40%; inactive = below about 15%; also: compound concentration not given in the record; the text of the record calls up to 30% inactive
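Agonist mode: compounds alone added to overnight-plated D2 PathHunter cells for 90 min at 37 C, with 57 uM final dopamine (EC100) defining full response. Beta-arrestin recruitment detected by chemiluminescent reagent, read after 1 h at ambient temperature.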
CtBP-E1A blk: inhibitors of CtBP/E1A interaction | AlphaScreen GST-E1A/His-CtBP binding, 1536-well; active compounds read low; control for the full effect not named in the record | activity change, % (no concentration beside the values) | 0.49% of 340,000 active; in the data active means activity change below about -65%; inconclusive means about -30% to -65%; inactive means above about -30%; also: % is scaled to controls: 0 for no effect and ±100 for the full control effect
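Homogeneous bead-based format: GST-tagged E1A captured on glutathione donor beads, His-tagged CtBP on nickel acceptor beads; compounds precede bead addition by 2 h at 37 °C.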
PINK1 expr mod: modulators of PINK1 expression | 0.2% of 410,000 active | Potency, µM (highest dose often 76.6 µM), for the others: at the highest dose activation (PINK1 increase), most hits filed as activators | PINK1 immunofluorescence, high-content cytometry, 24 h | AID 624263; active = well fitted activation curve with a large enough effect; inconclusive = small, poorly fitted or top-dose-only effect; inactive = flat fitted curve, though single readings scatter; cell line not stated here;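 also: potency is read from the fitted curve at half-maximal effect; % of control where 0% means no effect; nearly all actives have a fitted effect of over 65% in size; a mitochondrial uncoupler was the plate control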
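Readout is PINK1 immunofluorescence, quantified alongside mitochondrial, cell and nuclear markers by laser-scanning microplate cytometry. Cells from a stable line were exposed to compound titrations (5 concentrations) for 24 hours, with CCCP controls.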
* marks the source's active call; other numbers are inactive results; & = joins results of further samples; [ ] = dose if it differs, or a comment.

How did COc1c(Br)cc([N+](=O)[O-])c(OC)c1C(=O)NC(=O)Nc1cc(Cl)cc(Cl)c1 do in these assays?
Six1-Eya2 blk: -4.3; TRPML1 agonist: 3.5; D2 PAM: 14.1; D2 agonist: 0.6; PINK1 expr mod: inconclusive

How did CCN(CC)CCN1C(=O)C2C(C(=O)Nc3ccc(C(C)C)cc3)C3C=CC2(O3)C1C(=O)NC1CCCCC1 (configuration not stated) do in these assays?
Six1-Eya2 blk: -2.2; TRPML1 agonist: -0.3; D2 PAM: -2.0; D2 agonist: -2.6; CtBP-E1A blk: 4.4; PINK1 expr mod: 0.1%

Results for CCOc1cc(C(=O)OCC(=O)Nc2cc(C)on2)cc(OCC)c1OCC ?
Six1-Eya2 blk: -1.3; TRPML1 agonist: 3.5; D2 PAM: -6.8; D2 agonist: -1.3; CtBP-E1A blk: 4.1; PINK1 expr mod: 6.4%[38.3 µM]

Results for CC(=O)N1CCN(c2ccccc2NC(=O)c2cccs2)CC1 ?
Six1-Eya2 blk: -10.6; TRPML1 agonist: -0.1; D2 PAM: -25.2; D2 agonist: 1.2; CtBP-E1A blk: -17.3; PINK1 expr mod: -1.8%

How did Cc1ccc(N2C(=O)[C@@H]3C(C(=O)CN4C(=O)c5ccccc5C4=O)=NN[C@@H]3C2=O)c(C)c1 do in these assays?
Six1-Eya2 blk: -1.7; TRPML1 agonist: -0.4; D2 PAM: -8.5; D2 agonist: 2.3; CtBP-E1A blk: 10.3; PINK1 expr mod: 0.0%

What do the screens show for `COc1cccc(CNc2ccc(C(=O)O)cc2)c1OCc1ccccc1`?
Six1-Eya2 blk: 0.3; TRPML1 agonist: -0.4; D2 PAM: -2.4; D2 agonist: -0.6; CtBP-E1A blk: 8.1; PINK1 expr mod: 2.1%

How did CNC(=S)NNC(=O)CCn1nc(C)c(Br)c1C do in these assays?
Six1-Eya2 blk: 2.4; TRPML1 agonist: -0.5; D2 PAM: -27.4; D2 agonist: -6.7; CtBP-E1A blk: 4.9; PINK1 expr mod: 7.8%[38.3 µM]

How did [N-]=[N+]=N[C@@H](CCN1CC[C@H](NC(=O)OCc2ccccc2)CCC1=O)c1ccccc1 do in these assays?
Six1-Eya2 blk: -4.8; TRPML1 agonist: -0.8&-0.4; D2 PAM: -12.7; D2 agonist: -1.8; CtBP-E1A blk: -13.3; PINK1 expr mod: 3.4%

What do the screens show for `Cc1ccc(S(=O)(=O)NCC(=O)OCC(=O)c2ccc(Br)s2)cc1`?
Six1-Eya2 blk: 1.6; TRPML1 agonist: -0.5; D2 PAM: 4.5; D2 agonist: -5.0; CtBP-E1A blk: -3.7; PINK1 expr mod: 2.5%

What do the screens show for `Cc1ccc(/C=C2/SC(=O)N(CC(=O)N3CCOCC3)C2=O)s1`?
Six1-Eya2 blk: -3.4; TRPML1 agonist: -0.2; D2 PAM: 2.7; D2 agonist: -2.4; CtBP-E1A blk: -13.3; PINK1 expr mod: 4.8%

What do the screens show for `CCOC(=O)c1c(NC(=O)CSc2n[nH]c(-c3ccco3)n2)sc(C)c1C`?
Six1-Eya2 blk: -7.9; TRPML1 agonist: 3.9; D2 PAM: -21.3; D2 agonist: 0.4; CtBP-E1A blk: -7.6; PINK1 expr mod: -0.5%

How did O=c1c2ccccc2nc2n1CCCS2 do in these assays?
Six1-Eya2 blk: -3.9; TRPML1 agonist: 0.0; D2 PAM: 3.2; D2 agonist: -1.7; CtBP-E1A blk: 0.7

How did O=C(c1ccc(Cl)cc1)N1CCC(C(=O)N2CCN(c3ncccn3)CC2)CC1 do in these assays?
Six1-Eya2 blk: 11.4; TRPML1 agonist: 0.8; D2 PAM: 7.9; D2 agonist: -2.4; CtBP-E1A blk: 4.5; PINK1 expr mod: 1.5%

What do the screens show for `CCCN1CCN(CCCNC(=O)CCNC(=O)Cn2ccc3ccccc3c2=O)CC1`?
Six1-Eya2 blk: 7.9; TRPML1 agonist: 2.8; D2 PAM: -13.7; D2 agonist: -1.1; CtBP-E1A blk: -2.1; PINK1 expr mod: -2.6%

How did O=c1oc2ccccc2n1Cc1ccccc1F do in these assays?
Six1-Eya2 blk: 1.3; D2 PAM: -5.9; D2 agonist: -4.2; CtBP-E1A blk: -2.7; PINK1 expr mod: -1.0%

What do the screens show for `COc1cccc(S(=O)(=O)NCc2ccc(C(=O)Nc3ccc(Cl)cc3)cc2)c1`?
Six1-Eya2 blk: 6.8; TRPML1 agonist: 1.0; D2 PAM: -16.4; D2 agonist: 1.2; CtBP-E1A blk: 1.1; PINK1 expr mod: 6.9%

What do the screens show for `CC(NC(=O)C1CCN(S(=O)(=O)c2ccc(Br)s2)CC1)c1ccccc1` (configuration not stated)?
Six1-Eya2 blk: 6.3; TRPML1 agonist: 1.7; D2 PAM: 4.9; D2 agonist: 5.9; CtBP-E1A blk: 3.1; PINK1 expr mod: 3.1%

What do the screens show for `COc1ccc(C2SCCN2C(=S)Nc2cccc(Cl)c2)cc1` (configuration not stated)?
Six1-Eya2 blk: -4.9; TRPML1 agonist: 6.5; D2 PAM: -15.0; D2 agonist: -2.2; CtBP-E1A blk: -2.0; PINK1 expr mod: inconclusive

How did CCC(C)(NC(=O)c1ccc2c(c1)OCO2)C(=O)NC1CCCCC1 (configuration not stated) do in these assays?
Six1-Eya2 blk: 0.4; TRPML1 agonist: -0.5; D2 PAM: -1.8; D2 agonist: 0.7; CtBP-E1A blk: 7.1; PINK1 expr mod: 0.9%

What do the screens show for `O=C(CN1CCN(Cc2ccccc2)CC1)Nc1cccc(Br)c1`?
Six1-Eya2 blk: 15.2; TRPML1 agonist: 2.1; D2 PAM: -11.7; D2 agonist: 1.0; CtBP-E1A blk: 0.7; PINK1 expr mod: 1.6%

What do the screens show for `N#CNC1=NCN(CCc2ccccc2)CN1`?
Six1-Eya2 blk: 7.6; TRPML1 agonist: -0.6; D2 PAM: 0.0; D2 agonist: -4.1; CtBP-E1A blk: 3.0; PINK1 expr mod: -0.5%

What do the screens show for `O=c1n(Cc2ccccc2)nc2n1-c1ccccc1SC2`?
Six1-Eya2 blk: 7.5; TRPML1 agonist: -1.1; D2 PAM: -11.6; D2 agonist: -3.9; PINK1 expr mod: 0.5%

What do the screens show for `CC1=NN(C(N)=S)C(=O)C1N=Nc1cccc([N+](=O)[O-])c1` (configuration not stated)?
Six1-Eya2 blk: 6.6; TRPML1 agonist: 0.7; D2 PAM: -5.6; D2 agonist: 2.6; CtBP-E1A blk: 3.2; PINK1 expr mod: -1.4%

How did Cc1cc(N2CCOCC2)cc(C)[n+]1[O-] do in these assays?
Six1-Eya2 blk: 6.1; TRPML1 agonist: 0.0; D2 PAM: -7.0; D2 agonist: 2.2; CtBP-E1A blk: -1.7; PINK1 expr mod: -2.2%

What do the screens show for `CCNC(=O)CC1C(=O)N(c2ccc(OC)cc2)C(=O)N1Cc1ccc(OC)cc1` (configuration not stated)?
Six1-Eya2 blk: 1.4; TRPML1 agonist: 1.5; D2 PAM: 6.1; D2 agonist: -0.8; CtBP-E1A blk: 4.3; PINK1 expr mod: -3.1%[38.3 µM]

Results for Cc1nnc(OCc2nc3ccccc3n2C)c2ccccc12 ?
Six1-Eya2 blk: 13.1; TRPML1 agonist: 1.6; D2 PAM: -39.5; D2 agonist: -1.4; CtBP-E1A blk: -5.3; PINK1 expr mod: 0.7%

Results for Cc1ccc(C2(C)NC(=O)N(CC(=O)N3c4ccccc4NC(=O)CC3C)C2=O)cc1 (configuration not stated) ?
Six1-Eya2 blk: 15.8; TRPML1 agonist: -0.3; D2 PAM: 2.3; D2 agonist: 8.5; CtBP-E1A blk: 0.0; PINK1 expr mod: -0.4%

What do the screens show for `COc1cccc(C(=O)N2CCCN(C)CC2)c1OC`?
Six1-Eya2 blk: 0.6; TRPML1 agonist: 0.9; D2 PAM: -1.6; D2 agonist: 1.8; CtBP-E1A blk: -7.0; PINK1 expr mod: 1.0%

What do the screens show for `CCn1c(CCNC(=O)c2ccc(C)cc2)nnc1SCc1ccc(Cl)c(Cl)c1`?
Six1-Eya2 blk: -2.0; TRPML1 agonist: 2.5; D2 PAM: -3.4; D2 agonist: -1.5; CtBP-E1A blk: -10.5; PINK1 expr mod: -0.7%

Results for O=S(=O)(/N=C(/Nc1nc2ccccc2s1)c1ccccc1)c1ccc(F)cc1 ?
Six1-Eya2 blk: -1.7; TRPML1 agonist: -0.8; D2 PAM: -10.2; D2 agonist: -5.9; CtBP-E1A blk: 0.5; PINK1 expr mod: -1.1%

Results for CCC(C)(C)n1nnnc1C(c1ccc(N(C)C)cc1)N1CCN(C2CCCCC2)CC1 (configuration not stated) ?
Six1-Eya2 blk: 1.7; TRPML1 agonist: 0.0; D2 PAM: -5.0; D2 agonist: 1.8; CtBP-E1A blk: -3.7; PINK1 expr mod: -1.3%

Results for Cc1cc(NCc2ccccc2)n2ncnc2n1 ?
Six1-Eya2 blk: 5.2; TRPML1 agonist: 0.1; D2 PAM: -7.2; D2 agonist: -1.7; CtBP-E1A blk: -2.0; PINK1 expr mod: 1.5%

How did CCOc1ccc(NC(=O)C2CCCN2C(=O)NC2CCCCC2)cc1 (configuration not stated) do in these assays?
Six1-Eya2 blk: -6.6; TRPML1 agonist: -1.1; D2 PAM: -2.0; D2 agonist: -6.8; CtBP-E1A blk: -0.9; PINK1 expr mod: 3.1%

What do the screens show for `COc1ccc(C[C@H]2CN3C(=NC[C@@H]3C(C)C)N2C[C@H](C)NC(=O)c2ccc(C)c(Br)c2)cc1`?
Six1-Eya2 blk: -10.8; TRPML1 agonist: 0.1; D2 PAM: -30.4; D2 agonist: -0.5; CtBP-E1A blk: -8.8; PINK1 expr mod: inconclusive

What do the screens show for `Cc1ccc(Nc2nnc(SCC(=O)NCC3CCCO3)s2)cc1` (configuration not stated)?
Six1-Eya2 blk: inconclusive; TRPML1 agonist: 0.4; D2 PAM: -5.4; D2 agonist: -2.6; CtBP-E1A blk: -24.0; PINK1 expr mod: 1.7%

Results for COCOCCn1cc(CN2CCS(=O)(=O)N(Cc3ccc(-c4ccccc4)cc3)C(CC(C)C)C2=O)nn1 (configuration not stated) ?
Six1-Eya2 blk: -2.0; D2 agonist: 2.3; CtBP-E1A blk: 0.6; PINK1 expr mod: 28.9%

Results for CCOC(=O)c1sc2nc3c(cc2c1N)COC(C(C)C)C3 (configuration not stated) ?
Six1-Eya2 blk: 3.7; TRPML1 agonist: 0.5; D2 PAM: -9.6; D2 agonist: -4.3; CtBP-E1A blk: -1.6; PINK1 expr mod: 5.5%

3 records drawn at random from the list so far, as already listed:
Results for COCOCCn1cc(CN2CCS(=O)(=O)N(Cc3ccc(-c4ccccc4)cc3)C(CC(C)C)C2=O)nn1 (configuration not stated) ?
Six1-Eya2 blk: -2.0; D2 agonist: 2.3; CtBP-E1A blk: 0.6; PINK1 expr mod: 28.9%

How did CCOc1ccc(NC(=O)C2CCCN2C(=O)NC2CCCCC2)cc1 (configuration not stated) do in these assays?
Six1-Eya2 blk: -6.6; TRPML1 agonist: -1.1; D2 PAM: -2.0; D2 agonist: -6.8; CtBP-E1A blk: -0.9; PINK1 expr mod: 3.1%

Results for Cc1ccc(C2(C)NC(=O)N(CC(=O)N3c4ccccc4NC(=O)CC3C)C2=O)cc1 (configuration not stated) ?
Six1-Eya2 blk: 15.8; TRPML1 agonist: -0.3; D2 PAM: 2.3; D2 agonist: 8.5; CtBP-E1A blk: 0.0; PINK1 expr mod: -0.4%
